Source: PubChem
p53 HeLa = nuclear p53 accumulation, HPV+ cells – imaging, p53-positive nuclei imaging, 24 h, 48 h (AID 1508601). 5,700 compounds, 1% hits. p53-positive nuclei imaging, 48 h; hits give high values; some inactives read as strong as hits. p53-positive nuclei, normalised, % at 11 µM unless noted;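 active = mean of two plates above 50% at 24 h or at 48 h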;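 also: HPV-positive HeLa cells with a fluorescent p53 stability reporter; 0% = vehicle and 100% = proteasome inhibitor control; doses worked out from stocks diluted about 900-fold with the highest of each compound shown; many of its hits are not listed in these tables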
p53 HeLa cells 24 h = further read-out of p53 HeLa, marked with its call; nuclei count, normalised, %; measured here: cell number at 24 h;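 100% = vehicle wells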
p53 HeLa p53 24 h = also measured in p53 HeLa; calls as there; p53-positive nuclei, normalised, %; measured here: p53 positive nuclei at 24 h;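 0% = vehicle and 100% = positive control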
p53 HeLa cells 48 h = recorded beside p53 HeLa, whose call it bears; nuclei count, normalised, %; measured here: cell number at 48 h;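 100% = vehicle wells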
Numbers without * were called inactive; [ ] = dose if it differs, or a comment. A portion of the library. The share of hits here may be higher or lower than overall.

The opening 2 entries as a preview:
SMILES	p53 HeLa	p53 HeLa cells 24 h	p53 HeLa p53 24 h	p53 HeLa cells 48 h
CCCN(CCC)CCc1cccc2c1CC(=O)N2	0.2[3.7 µM]	106	0.1	95
CC(C)Oc1ccc2c(=O)c(-c3ccccc3)coc2c1	-0.1[3.7 µM]	101	-0.3	89

The listing, from the first entry:
SMILES	p53 HeLa	p53 HeLa cells 24 h	p53 HeLa p53 24 h	p53 HeLa cells 48 h
CCCN(CCC)CCc1cccc2c1CC(=O)N2	0.2[3.7 µM]	106	0.1	95
CC(C)Oc1ccc2c(=O)c(-c3ccccc3)coc2c1	-0.1[3.7 µM]	101	-0.3	89
COC1O[C@H]2O[C@@]3(C)CC[C@H]4[C@@H](C)CC[C@@H]([C@H]1C)[C@@]24OO3 (some centres undefined)	0.2[3.7 µM]	105	0.0	103
C[C@]1(C(=O)Nc2ccc(F)nc2)CCCN1c1nc(Nc2cc(C3CC3)[nH]n2)c2cccn2n1	-0.5[3.7 µM]	46	-0.1	30
O=c1oc(-c2ccccc2F)nc2sc3c(c12)CCCC3	-0.1	95	0.0	99
NCC(=O)Nc1ccc(-n2nc(C(F)(F)F)cc2-c2ccc3c(ccc4ccccc43)c2)cc1	8.3	47	2.6	34
OCCOCCN1CCN(C2=Nc3ccccc3Sc3ccccc32)CC1	0.0	114	-0.2	107
CC(=O)c1cc([N+](=O)[O-])c(Sc2cccc(Cl)c2Cl)s1	0.5	100	0.0	104
CN(C)CCc1c[nH]c2ccc(CC3COC(=O)N3)cc12 (centres undefined)	-0.3[3.7 µM]	111	-0.5	106
Nc1ncnc2n[nH]c(Nc3ccc(F)cc3)c12	-0.1	103	-0.1	101
CS(=O)(=O)c1ccc(C(CC2CCCC2)C(=O)Nc2nccs2)cc1 (centres undefined)	0.0	109	-0.1	106
CCOc1ccc2nc3cc(N)ccc3c(N)c2c1	-0.2[3.7 µM]	102	-0.2	97
O=C1SC(=Cc2ccc(OCc3cccc(B(O)O)c3)cc2)C(=O)N1Cc1ccc(F)cc1	-0.2	110	-0.1	113
C=CC(=O)N1CCC(Oc2cc3c(Nc4ccc(Cl)c(Cl)c4F)ncnc3cc2OC)CC1	0.2	54	0.3	54
NC(=O)c1ccc(I)c([N+](=O)[O-])c1	-0.8	105	-0.1	100
CC(C)CC(NC(=O)CNC(=O)c1cc(Cl)ccc1Cl)B(O)O (centres undefined)	98*[3.7 µM]	50*	94*	43*
COc1ccc(Br)c(C=O)c1O	0.0	100	0.0	105
CC(C)(C#N)c1ccc(N2C(=O)OCc3cnc4ccc(-c5cnc6ccccc6c5)cc4c32)cc1	-0.2[3.7 µM]	113	-0.4	103
CN1C[C@@H]2c3ccccc3Oc3ccc(Cl)cc3[C@H]2C1	-0.5[3.7 µM]	108	-0.2	101
CCOc1nc2cccc(C(=O)OC(C)OC(=O)OC3CCCCC3)c2n1Cc1ccc(-c2ccccc2-c2nn[nH]n2)cc1 (centres undefined)	-0.3[3.7 µM]	117	-0.5	112
O=C(Nc1cccnc1)c1cc(-c2ccnc(F)c2)ccc1OCc1ccccc1	0.0	110	0.2	112
Cc1cc(-n2cccc2)c(S(C)(=O)=O)cc1C(=O)N=C(N)N	-0.1	108	-0.1	110
OC(Cn1cncn1)(Cn1cncn1)c1ccc(F)cc1F	0.1	108	-0.1	106
CNC(C)C(=O)NC(C(=O)N1CCCC1C(=O)Nc1snnc1-c1ccccc1)C1CCCCC1 (centres undefined)	-0.1[3.7 µM]	109	-0.1	99
CC(C=CC1=C(C)CCCC1(C)C)=CC=CC(C)=CC(=O)Nc1ccc(O)cc1	1.5	96	1.9	101
CN(C)CCCCC(=O)Nc1ccc(NC(=S)NC(=O)c2ccc(C(C)(C)C)cc2)cc1	1.2[3.7 µM]	105	0.5	90
Cc1noc(NS(=O)(=O)c2ccc(N)cc2)c1C	-0.1[3.7 µM]	95	0.0	103
CC#CCC(C)C(O)C=CC1C(O)C[C@@H]2CC(=CCCCC(=O)O)C[C@@H]12 (some centres undefined)	0.0	106	0.0	102
CCc1ccc(C=C2SC(=S)NC2=O)cc1	-0.2[3.7 µM]	104	-0.4	101
CCCCOc1ccc(OCCCN2CCOCC2)cc1	0.1[3.7 µM]	117	-0.2	106
CCN=C1N[C@@H]2C(O)C(O)C(CO)O[C@H]2S1 (some centres undefined)	-0.2	104	0.0	114
COc1cc(C=CC(=O)O)ccc1O	0.1[3.7 µM]	102	-0.2	96
COC1CC2CCC(C)C(O)(O2)C(=O)C(=O)N2CCCCC2C(=O)OC(C(C)CC2CCC(O)C(OC)C2)CC(=O)C(C)C=C(C)C(O)C(OC)C(=O)C(C)CC(C)C=CC=CC=C1C (centres undefined)	-0.1	106	0.2	110
Cc1nn(C)c(COc2ccc(N3CCN(S(=O)(=O)N(C)C)CC3)cc2)c1-c1cccc2c(CCCOc3cccc4ccccc34)c(C(=O)O)n(CCN3CCOCC3)c12	0.0	101	0.1	100
CCC1C(O)[C@@H]2[C@H]3CC[C@H](C(C)CCC(=O)O)[C@@]3(C)CC[C@@H]2[C@@]2(C)CCC(O)C[C@@H]12 (some centres undefined)	0.2	104	-0.1	110
COc1ccccc1-c1cc(Nc2cccc(CS(N)(=O)=O)c2)ncn1	0.0[3.7 µM]	91	-0.3	94

Part of the list above with just p53 HeLa p53 24 h, p53 HeLa cells 48 h and p53 HeLa cells 24 h:
Compound,p53 HeLa p53 24 h,p53 HeLa cells 48 h,p53 HeLa cells 24 h
Cc1nn(C)c(COc2ccc(N3CCN(S(=O)(=O)N(C)C)CC3)cc2)c1-c1cccc2c(CCCOc3cccc4ccccc34)c(C(=O)O)n(CCN3CCOCC3)c12,0.1,100,101
CCC1C(O)[C@@H]2[C@H]3CC[C@H](C(C)CCC(=O)O)[C@@]3(C)CC[C@@H]2[C@@]2(C)CCC(O)C[C@@H]12 (some centres undefined),-0.1,110,104

Next structures follow.
SMILES	p53 HeLa	p53 HeLa cells 24 h	p53 HeLa p53 24 h	p53 HeLa cells 48 h
CN(C)C(=O)Oc1ccc[n+](C)c1	-0.3[3.7 µM]	112	-0.4	104
NS(=O)(=O)c1cc(Cl)c(Cl)c(S(N)(=O)=O)c1	0.0	111	0.0	107
O=C1OC(CN2CCOCC2)CN1N=Cc1ccc([N+](=O)[O-])o1 (centres undefined)	-0.1[3.7 µM]	118	-0.2	109
CCCCCCCCn1cc(CC(N)=O)c2cc(-c3cccc(C)c3)ccc21	0.2	105	0.4	108
CC1(C)CCC2=C(O1)c1ccccc1C(=O)C2=O	0.8	36	2.7	29
CN1CCN(C(=O)c2cc3cc(Cl)ccc3[nH]2)CC1	-0.3[3.7 µM]	122	-0.5	122
Cc1ccc(C(=O)Nc2cccc(C(F)(F)F)c2)cc1Nc1cncc(C(N)=O)c1	0.2	67	0.2	63
CN1CCN(C(=S)SSC(=S)N2CCN(C)CC2)CC1	90*	52*	111*	37*
C=CC(=O)Nc1ccc2ncnc(Nc3ccc(OCc4cccc(F)c4)c(Cl)c3)c2c1	0.0	90	0.0	95
COCCCN1CCC(NC(=O)c2cc(Cl)c(N)c3c2OCC3)CC1	-0.1	107	0.0	109
Cc1cc(O)c2c(c1)C(=O)c1cc(O)cc(O)c1C2=O	-0.2[3.7 µM]	105	-0.1	103
C=CCNC(N)=S	0.0[3.7 µM]	113	-0.3	110
Oc1c(Cl)cc(Cl)c2cccnc12	0.0[3.7 µM]	114	-0.1	116
O=c1[nH]cnc2c(C3NC(CO)C(O)C3O)c[nH]c12 (centres undefined)	0.0	101	-0.1	104
CC1(C)CCC[C@@]2(C)[C@H]3CC(=O)O[C@]3(C)CC[C@@H]12	0.5[3.7 µM]	106	-0.2	100
Cc1ccc(S(=O)(=O)Nc2nc3ccccc3nc2Nc2ccc3nsnc3c2)cc1	-0.5[3.7 µM]	102	-0.3	98
CC(OC1OCCN(Cc2nn(P(=O)(O)O)c(=O)[nH]2)C1c1ccc(F)cc1)c1cc(C(F)(F)F)cc(C(F)(F)F)c1 (centres undefined)	-0.1[3.7 µM]	104	2.5	101
O=C(O)c1ccc(-c2nc(-c3cccc(C(F)(F)F)c3)cs2)cc1	0.1	101	-0.2	95
CC(C)(O)CNc1nc(Nc2ccnc(C(F)(F)F)c2)nc(-c2cccc(C(F)(F)F)n2)n1	0.0	112	0.1	105
O=S(=O)(NCCNCC=Cc1ccc(Br)cc1)c1cccc2cnccc12	0.1	105	0.0	111
CC(C)N(CCCCOCC(=O)O)c1cnc(-c2ccccc2)c(-c2ccccc2)n1	-0.3	95	-0.1	101
Cc1ccsc1C(=CCCN1CCCC(C(=O)O)C1)c1sccc1C (centres undefined)	0.0	104	-0.1	102
O=[N+]([O-])c1cccc2nsnc12	-0.2	103	0.0	110
CC(C)OC(=O)C1=CN(C(=O)c2ccc(F)c(F)c2)CC(C)(C)c2c1[nH]c1ccccc21	0.0	103	0.0	110

5 entries from above, sorted by formula weight, lowest first.
SMILES	p53 HeLa	p53 HeLa cells 24 h	p53 HeLa p53 24 h	p53 HeLa cells 48 h
Cc1ccsc1C(=CCCN1CCCC(C(=O)O)C1)c1sccc1C (centres undefined)	0.0	104	-0.1	102
CC(C)N(CCCCOCC(=O)O)c1cnc(-c2ccccc2)c(-c2ccccc2)n1	-0.3	95	-0.1	101
O=S(=O)(NCCNCC=Cc1ccc(Br)cc1)c1cccc2cnccc12	0.1	105	0.0	111
Cc1ccc(S(=O)(=O)Nc2nc3ccccc3nc2Nc2ccc3nsnc3c2)cc1	-0.5[3.7 µM]	102	-0.3	98
CC(C)(O)CNc1nc(Nc2ccnc(C(F)(F)F)c2)nc(-c2cccc(C(F)(F)F)n2)n1	0.0	112	0.1	105

(cont.)
SMILES	p53 HeLa	p53 HeLa cells 24 h	p53 HeLa p53 24 h	p53 HeLa cells 48 h
Oc1ccc(C=NN(Cc2ccccc2)Cc2ccccc2)cc1	1.4	54	2.5	54
CC1COC2(CCN(c3nc(=O)c4cc(C(F)(F)F)cc([N+](=O)[O-])c4s3)CC2)O1 (centres undefined)	-0.5[3.7 µM]	109	-0.3	103
Cn1c(=O)[nH]c(=O)c2c1nc1n(CCCCO)c(-c3ccccc3)cn21	-0.1	85	0.0	91
COc1ccccc1C(=O)Nc1cccc(NC(=O)c2cccc(C)c2)c1	-0.1	110	-0.1	94
O=C1NCCSc2c1sc1ccc(O)cc21	61*	56*	4.1*	37*
O=C(CCc1ccc(O)cc1)c1c(O)cc(O)cc1OC1OC(CO)C(O)C(O)C1O (centres undefined)	-0.2[3.7 µM]	112	-0.2	112
CC1(C)S[C@@H]2C(NC(=O)Cc3ccccc3)C(=O)N2C1C(=O)O (some centres undefined)	-0.1[3.7 µM]	111	-0.3	104
COc1ccc2cc(OCC3(C(=O)O)CN(C(=O)c4ccc(F)cc4)C3)ccc2c1	-0.2	80	0.1	89
CC(NC(=O)CCc1nc2ccccc2c(=O)[nH]1)c1ccccc1 (centres undefined)	-0.1[3.7 µM]	110	-0.3	110
CC(C)=CCC[C@](C)(OC1OC(COC2OCC(O)C(O)C2O)C(O)C(O)C1O)C1CC[C@]2(C)[C@@H]1C(O)C[C@H]1[C@@]3(C)CCC(OC4OC(CO)C(O)C(O)C4O)C(C)(C)[C@@H]3CC[C@]12C (some centres undefined)	-0.2[3.7 µM]	115	-0.5	108
Cc1c(C2CCN(CCc3ccccc3)CC2)noc1-c1ccc(Cl)cc1	-0.3	111	-0.2	111
Nc1ncnc2c1c(-c1cnc3[nH]ccc3c1)nn2C1CCCC1	-0.3[3.7 µM]	71	-0.3	58
OCCN1CC(O)C(O)C(O)C1CO (centres undefined)	-0.1	104	-0.2	100
COc1cc(NC(=O)c2ccccn2)ccc1Cl	-0.1[3.7 µM]	108	-0.4	99

Looked up by structure from the list above:
SMILES	p53 HeLa	p53 HeLa cells 24 h	p53 HeLa p53 24 h	p53 HeLa cells 48 h
CC(C)=CCC[C@](C)(OC1OC(COC2OCC(O)C(O)C2O)C(O)C(O)C1O)C1CC[C@]2(C)[C@@H]1C(O)C[C@H]1[C@@]3(C)CCC(OC4OC(CO)C(O)C(O)C4O)C(C)(C)[C@@H]3CC[C@]12C (some centres undefined)	-0.2[3.7 µM]	115	-0.5	108
CC1(C)S[C@@H]2C(NC(=O)Cc3ccccc3)C(=O)N2C1C(=O)O (some centres undefined)	-0.1[3.7 µM]	111	-0.3	104
